# RecA splice inh = blocks M. tuberculosis RecA intein splicing; cell-free RecA intein splicing, fluorescence; 290,000 tested, 0.75% active; AID 2221; P9WHJ3; inhibition, %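 (about 9 µM by stock and volumes)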; in the data active = inhibition above about 30%; inconclusive = no clear call, values can overlap the other calls;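 note: 0% = vehicle wells and 100% = reference inhibitor control wells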
# Target sequence (P9WHJ3 whole entry, looked up, canonical isoform): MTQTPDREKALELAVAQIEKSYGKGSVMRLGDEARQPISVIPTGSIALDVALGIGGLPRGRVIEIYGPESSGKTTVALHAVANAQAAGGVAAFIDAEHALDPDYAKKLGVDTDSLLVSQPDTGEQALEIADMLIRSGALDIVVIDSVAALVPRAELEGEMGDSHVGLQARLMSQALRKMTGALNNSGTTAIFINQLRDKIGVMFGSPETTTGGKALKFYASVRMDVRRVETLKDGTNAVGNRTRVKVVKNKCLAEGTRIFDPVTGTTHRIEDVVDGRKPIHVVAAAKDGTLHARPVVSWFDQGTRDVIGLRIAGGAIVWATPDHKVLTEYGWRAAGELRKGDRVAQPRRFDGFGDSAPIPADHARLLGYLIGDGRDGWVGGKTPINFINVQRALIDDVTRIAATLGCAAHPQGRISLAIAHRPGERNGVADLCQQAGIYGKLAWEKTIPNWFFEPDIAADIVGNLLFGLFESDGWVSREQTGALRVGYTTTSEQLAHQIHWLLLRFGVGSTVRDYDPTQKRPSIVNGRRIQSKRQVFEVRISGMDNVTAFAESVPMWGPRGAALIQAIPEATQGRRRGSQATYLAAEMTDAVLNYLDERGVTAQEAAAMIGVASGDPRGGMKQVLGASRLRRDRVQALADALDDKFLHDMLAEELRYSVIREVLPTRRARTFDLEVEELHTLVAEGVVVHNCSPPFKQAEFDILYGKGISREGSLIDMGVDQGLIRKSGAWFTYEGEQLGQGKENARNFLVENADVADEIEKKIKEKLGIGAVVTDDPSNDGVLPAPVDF
# Mtb H37Rv = M. tuberculosis H37Rv growth inhibitors, H37Rv strain (AID 1626); M. tuberculosis H37Rv growth inhibition; higher % means a stronger effect; inhibition, % at 10 µM, or IC50 in µM where a hit was titrated; 220,000 tested, 0.95% active;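 active = confirmed in a dose series; inconclusive = inhibition above 80% but not taken into the dose series; inactive = below 80% or under 30% at every dose of the series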;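 note: bacteria incubated seven days before Alamar blue readout; 0% = bacteria only wells and 100% = bacteria with antibiotic wells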
# YopH inh = inhibitors of Yersinia enterocolitica YopH tyrosine phosphatase. fluorescence Ex485/Em525. inhibition, %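 (about 10 µM by stock and volumes)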. 140,000 tested, 0.16% active;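 active = inhibition of 50% or more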;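 note: controls were vehicle for no effect and minimum signal wells for full effect; inactives centre near -20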
# Mtb bLac sens = beta-lactam sensitization of Mtb H37Rv | inhibition, % at 25 µM | 330,000 tested, 0.27% active | AID 434955 | M. tuberculosis H37Rv growth with meropenem, percent inhibition; hits of this screen are not shown here;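 active = about 74% or more and at least 40 points above the plate without the antibiotic, then above 30% in a dose series; inconclusive = first-round hits that could not be retested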;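 note: growth measured after seven days incubation then overnight dye step; 0% = bacteria only wells and 100% = bacteria with antibiotic; twin plates without the antibiotic show which effects depend on it; some results filed as inactive read as strong as hits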
# Arbovirus inh = blocks arbovirus infection; arbovirus infection cell-based antiviral screen; inhibition, % at 10 µM; 200,000 tested, 0.37% active;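 active = inhibition from about 30%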;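 note: bluetongue infection of BSR cells; cell survival read as ATP light after 72 h; 0% = infected wells without compound and 100% = uninfected wells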
# Arbovirus inh repeat = further read-out of Arbovirus inh, marked with its call; inhibition, %; measured here: 10K subset replicate screen; many hits read low in the repeat;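 first of two repeat runs on a subset; 0% = infected and 100% = uninfected wells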
# Starred values were filed as active, the others as inactive; ? = inconclusive; . = no result given. These rows are one share of the data; rates above refer to the full screens.
# Start of the data: the first 4 records (preview)
SMILES,RecA splice inh,Mtb H37Rv,YopH inh,Mtb bLac sens,Arbovirus inh,others
CC(C)(C)n1ncc2c(=O)n(CC(=O)N3CCc4ccccc43)cnc21,-2.5,-9%,-18,8,8,
CCCc1nc2ccc(Br)cc2c(=O)n1-c1ccc([N+](=O)[O-])c(C(F)(F)F)c1,3.0,52%,-23,1,16,
Cc1sc2nc(SCC(=O)c3cc(C)n(CC4CCCO4)c3C)n(C(C)C)c(=O)c2c1C (stereo unspecified),1.0,-8%,-34,-1,4,
O=C(Nc1c[nH]c(=O)[nH]c1=O)c1ccc2c(c1)C(=O)N(c1cccc([N+](=O)[O-])c1)C2=O,0.7,-7%,.,.,.,

# Main list, from the first entry:
SMILES,RecA splice inh,Mtb H37Rv,YopH inh,Mtb bLac sens,Arbovirus inh,others
CC(C)(C)n1ncc2c(=O)n(CC(=O)N3CCc4ccccc43)cnc21,-2.5,-9%,-18,8,8,
CCCc1nc2ccc(Br)cc2c(=O)n1-c1ccc([N+](=O)[O-])c(C(F)(F)F)c1,3.0,52%,-23,1,16,
Cc1sc2nc(SCC(=O)c3cc(C)n(CC4CCCO4)c3C)n(C(C)C)c(=O)c2c1C (stereo unspecified),1.0,-8%,-34,-1,4,
O=C(Nc1c[nH]c(=O)[nH]c1=O)c1ccc2c(c1)C(=O)N(c1cccc([N+](=O)[O-])c1)C2=O,0.7,-7%,.,.,.,
Cc1ccc2oc(C(=O)NCc3ccccc3)cc(=O)c2c1,-1.5,.,.,2,.,
Cc1c(C(=O)NCc2cccnc2)sc2nc(-c3ccccc3)cn12,4.2,.,.,1,-23,Arbovirus inh repeat=-13
Cc1nnc(SCC(=O)Nc2cccc(S(=O)(=O)N(C)c3ccccc3)c2)s1,-0.2,15%,-29,-3,2,
O=[N+]([O-])c1cccc(C2N3CCCN23)c1 (stereo unspecified),2.7,4%,.,-4,0,
CCOc1ccc(NC(=O)CCC(=O)NNC(=O)NC2CCCCC2)cc1,-3.9,.,.,93,.,
COc1ccc(N2C(=O)CCC(C(=O)N3CCC(C(N)=O)CC3)C2c2ccc(F)cc2)cc1 (stereo unspecified),0.2,-13%,-24,-7,3,Arbovirus inh repeat=0
O=C(CSc1nc2ccccc2[nH]1)Nc1ccc(F)cc1,1.0,10%,-48,4,2,Arbovirus inh repeat=15
CCCCOc1ccc(CN(C)c2ncnc(N)n2)cc1,-1.1,-2%,4,3,-3,
C/C(=N\NC(=O)c1cc(-c2ccc(Cl)s2)[nH]n1)c1ccncc1,5.1,.,.,5,.,
COc1ccc(NC(=O)N/C=C/c2ccccc2)cc1,-5.5,-1%,.,0,1,
O=C(CC1C(=O)NCCN1Cc1ccccc1C(F)(F)F)NCCN1CCOCC1 (stereo unspecified),-3.8,.,.,-3,.,
COCCCn1c(C(=O)N2CC(C)OC(C)C2)cc2c(=O)n3cccc(C)c3nc21 (stereo unspecified),2.3,.,.,-4,.,
CC(C)c1ccccc1NC(=O)CNCCc1ccc(C(F)(F)F)cc1,1.8,10%,.,-8,.,
O=C(c1cc2ccccc2o1)N1CCN(Cc2ccccc2)CC1,1.6,.,.,3,.,
O=C1Nc2cc(C(=O)NCCCN3CCOCC3)ccc2S/C1=C/c1cccc(Cl)c1,2.1,.,.,74,.,
C=CCn1c(SCc2nc3c(c(=O)[nH]c(=O)n3CCCC)n2CCC)nnc1-c1ccccc1,1.4,-9%,-47,-15,-3,
N#Cc1c(-c2ccccc2)nc2n(-c3ccccc3)nc(C(=O)Nc3ccccc3)n2c1=O,-2.3,8%,1,67,-3,
Nc1ccn(Cc2ccccc2F)n1,.,-7%,.,-7,0,
O=C(Nn1c(Cc2ccccc2)nc2ccccc2c1=O)c1c(O)c2cccc3c2n(c1=O)CCC3,-1.9,?,.,3,0,
NC(=O)CN(N=Nc1cccc([N+](=O)[O-])c1)c1cccc([N+](=O)[O-])c1,1.3,6%,.,5,-1,
O=c1[nH]cc(-c2ccc(Br)cc2)n1Cc1ccccc1,-0.7,.,.,3,.,
O=C(Nc1ccccn1)C(=O)Nc1ccccn1,-1.4,-5%,.,-5,.,
S=C(NCc1ccco1)Nc1ccc(Cl)cc1Cl,10,5%,-23,-10,6,
COc1ccc(C(=O)NC2CCN(CC(=O)NCc3ccccc3)CC2)cc1,-4.9,.,.,-10,.,
CC(C)NC(=O)c1ccc2c(c1)N(CC(=O)Nc1ccccc1F)C(=O)C(C)(C)O2,-1.5,.,.,-6,.,
COc1cc(/C=N/n2cnnc2)ccc1OCc1ccc(C)cc1,-0.7,8%,-1,25,-4,
CCc1ccc(CN(C)C(=O)C2CCC(=O)N(CCCN3CCCC3=O)C2)cc1 (stereo unspecified),1.6,.,.,?,.,
O=C(COC(=O)c1ccccc1[N+](=O)[O-])Nc1nnc(-c2ccccc2)o1,1.6,.,.,75,.,
Cc1nn(CC(=O)Nc2nnc(C(C)C)s2)c(=O)c2ccccc12,.,3%,.,22,6,
O=C(CSc1nnc(Cc2ccccc2)o1)N1CCCC1,-4.5,-2%,.,-5,-3,
C/C(=N\NC(=O)C(C)Nc1cccc(Cl)c1)c1ccc([N+](=O)[O-])cc1 (stereo unspecified),-9.2,4%,-8,6,-2,
O=C(COc1ccc(Br)cc1)OCCN1CCCCC1,-2.1,.,.,-5,.,
Cc1cc(C(=O)N2CCOCC2)n(-c2ccccc2)n1,-1.8,1%,-1,1,-4,
CCS(=O)(=O)NCC(c1cccnc1)N1CCN(c2ccc(F)cc2)CC1 (stereo unspecified),-2.8,-3%,-29,3,-1,
S=c1[nH]ncn2c1cc1oc3ccccc3c12,10,4%,.,2,-4,
CC(=O)Nc1ccc(NC(=O)C(C)OC(=O)c2oc3ccccc3c2C)cc1 (stereo unspecified),-2.7,.,.,-4,.,
Cc1ccc(NC(=O)c2cc(C)on2)cc1,-0.3,2%,-44,-4,0,
O=C(NN1CCOCC1)c1cnn2c(C(F)F)cc(-c3ccccc3)nc12,0.3,1%,.,-7,-1,
CC(C)Nc1nc(Cl)nc(NNC(=O)C(C)Oc2ccccc2)n1 (stereo unspecified),0.0,-3%,-21,-2,-2,
CC1CN(Cc2ccc(Cl)cc2Cl)CC(C)O1 (stereo unspecified),5.5,-6%,-20,-3,-8,
CCSc1nnc(NC(=O)CSc2sc3c(O)cc(=O)[nH]c3c2C#N)s1,0.2,.,.,-3,.,
CSc1ccc(-c2nnn(Cc3ccc(C)cc3)n2)cc1,0.8,-7%,-4,-4,-2,
O=C(NCCC1CCCCN1S(=O)(=O)c1ccccc1)C(=O)NCc1cccnc1 (stereo unspecified),-2.5,.,.,-1,.,
COc1ccc(CNc2ccc3c(c2)CCC3)cc1Br,1.6,.,.,97,.,
CCOc1ccc(Nc2ncnc3c2cnn3-c2ccccc2)cc1,0.3,.,-37,-4,4,Arbovirus inh repeat=3
CCC(C)c1ccc(NC(=S)N2CCN(S(C)(=O)=O)CC2)cc1 (stereo unspecified),-1.2,.,.,1,.,
CC(Sc1nc(-c2ccc(F)cc2)cs1)C(=O)Nc1ccc(Cl)cn1 (stereo unspecified),1.1,6%,-4,5,-8,
CCc1ccc(OCC2Cn3c(nc4c3c(=O)[nH]c(=O)n4C)O2)cc1 (stereo unspecified),-0.5,.,.,4,.,
O=C(/C=C/c1cccs1)NCc1ccc2c(c1)OCO2,0.9,.,.,1,.,
CCN1CCN(c2ccc(NC(=O)c3ccc(F)cc3)cc2Cl)CC1,1.9,3%,.,-5,-28,
COc1ccc(CNC(=O)C[C@H]2C(=O)N(C3CCCCC3)C[C@@H]2Cc2ccccc2)cc1,1.4,.,.,-6,.,
CCOC(=O)c1c(CNc2ccncc2)n(C)c2cc(Br)c(O)cc12,-0.9,2%,.,-1,1,
COc1cc(/C=N/NC(=O)c2ccncc2)ccc1OC(=O)c1cccc(Br)c1,-5.8,.,.,99,.,
COc1ccc(NC(=O)COc2cccc(-n3cnnn3)c2)cc1Cl,2.0,.,.,-13,.,
CC(C)CN(CCC(=O)O)CC(C)C,1.2,-1%,-12,-17,4,
Cc1nc2sccn2c(=O)c1Cl,-0.4,-6%,-20,-1,1,

# The results go on.
SMILES,RecA splice inh,Mtb H37Rv,YopH inh,Mtb bLac sens,Arbovirus inh,others
CCC(C)SCC(=O)Nc1ccc(S(=O)(=O)N2CCOCC2)cc1OC (stereo unspecified),0.1,-14%,.,1,.,
COc1ccc(N(CC(=O)NC(C)C)S(=O)(=O)c2ccc(NC(C)=O)cc2)cc1,0.8,-9%,-11,15,-1,
CCOC(=O)C1=C(C)NC2=C(C(=O)CCC2)C1c1cccs1 (stereo unspecified),-4.1,1%,5,-14,-3,
COc1ccc(C)cc1S(=O)(=O)Nc1cccc(SC)c1,1.1,-1%,23,1,-2,
Cc1ccc(NC(=O)c2cc(S(=O)(=O)NCCc3ccccc3)ccc2F)cc1Cl,-1.7,7%,-23,-1,13,
Clc1cccc(OCCN2CCN(CCOc3cccc(Cl)c3)CC2)c1,5.1,11%,-17,63,5,
CCNC(=O)CCSc1nc(C)cc(C)n1,-3.2,-4%,.,-7,12,
O=c1c(S(=O)(=O)c2ccc(Cl)cc2)cn(Cc2ccccc2)c2ccc(F)cc12,-2.1,3%,-21,11,-1,
Cc1noc(C)c1COC(=O)CCC(=O)c1ccc(F)cc1,-2.8,-3%,-11,-7,2,
C/C(=N\NC(=O)C(=O)Nc1cccc(Cl)c1)c1ccncc1,-2.0,?,-12,76,6,
CC(C)CCNC(=O)CCNS(=O)(=O)c1ccc(Cl)cc1,-1.4,0%,33,-8,3,
O=C(NC1CCCCC1)c1ccc(S(=O)(=O)N2CCOCC2)cc1,3.3,-3%,-48,2,2,Arbovirus inh repeat=-2
CC(C)[C@@H](CSc1ccccc1)N1CCN(Cc2ccccc2)CCC1=O,2.7,.,.,-4,.,
O=C(NCc1ccccn1)c1c(O)c2c([nH]c1=O)CCCC2,0.2,-7%,-15,8,-6,
Cc1cccc(NC(=O)c2ccc3ccccc3n2)c1C,-2.4,4%,-99,89,11,

# Part of the list above in order of length of the SMILES, rising:
SMILES,RecA splice inh,Mtb H37Rv,YopH inh,Mtb bLac sens,Arbovirus inh,others
Nc1ccn(Cc2ccccc2F)n1,.,-7%,.,-7,0,
O=c1[nH]cc(-c2ccc(Br)cc2)n1Cc1ccccc1,-0.7,.,.,3,.,
CCSc1nnc(NC(=O)CSc2sc3c(O)cc(=O)[nH]c3c2C#N)s1,0.2,.,.,-3,.,

# Additional results:
SMILES,RecA splice inh,Mtb H37Rv,YopH inh,Mtb bLac sens,Arbovirus inh,others
CC(=O)C1=C(C)NC(SCc2cccc3ccccc23)=C(C#N)C1c1ccco1 (stereo unspecified),-0.3,0%,-4,6,18,
O=C(COc1cc(Cl)c(Cl)cc1Cl)NC(=O)NC1CCCC1,0.5,6%,-4,-6,-9,
O=C(Nc1ccc(NC(=O)C2CC2)nc1)c1ccco1,-0.7,2%,-51,12,5,
Cc1cc(C)n(C(=O)CNC(=O)c2cccs2)n1,1.7,5%,-21,-2,5,
O=C(Nc1nnc(S(=O)(=O)N2CCCCCC2)s1)c1ccccc1F,0.1,.,.,3,.,
CCOC(=O)c1c(NC(=O)CSc2nnc(-c3ccc(C)cc3)o2)sc(C(C)=O)c1C,.,-4%,-21,7,-3,
CC(C)OCC(O)CN1CC2C[C@@H](C1)Cn1c2cccc1=O (stereo partly specified),-2.8,.,.,?,.,
Cc1c(Cl)cccc1NC(=O)CC(C(=O)O)C1CCCO1 (stereo unspecified),-2.1,-5%,-27,-15,2,
COc1ccc(/C=N/N(C)c2cc(=O)n(C)c(=O)[nH]2)cc1OC,10,-8%,.,3,3,
Cc1ccc(SCC(=O)OCC(=O)NCCC2=CCCCC2)cc1,5.1,.,.,3,.,
O=Nc1c(O)[nH]c2ccc(F)cc12,0.0,2%,.,-11,1,
COc1ccc(OC)c(S(=O)(=O)N2c3cc(F)ccc3CCC2C)c1 (stereo unspecified),6.8,20%,-18,-12,-2,
CC(C)CNC(=O)COCc1cc(-c2ccc3c(c2)OCO3)on1,-0.5,.,.,-7,.,
CCCCOc1ccc(C(=O)NCC(=O)NC(C)CCc2ccccc2)cc1 (stereo unspecified),-0.9,.,.,-6,.,
CCN(CC)C(=O)CSc1n[nH]c(=O)n1CCc1ccccc1,-1.7,.,.,3,.,
Cc1sc2nc(COC(=O)c3ccc(N4CCCC4)c([N+](=O)[O-])c3)[nH]c(=O)c2c1C,-0.2,20%,-26,70,-16,
Cc1ccc(C(C)C)c(Oc2nnnn2-c2ccccc2)c1,13,6%,3,6,-2,
COC(=O)c1cc(S(=O)(=O)N2CCN(c3cccc(C)c3)C(C)C2)c[nH]1 (stereo unspecified),-0.8,.,.,-3,.,
COc1ccc(C2Nc3ccccc3C(=O)N2O)cc1CN1CCOCC1 (stereo unspecified),-0.6,0%,-19,-3,-24,
O=C(O)CSC(=S)N1CCCC1,1.1,-2%,.,3,.,
COc1ccc(-c2csc3nc(C)nc(N4CCN(C(C)=O)CC4)c23)cc1OC,-1.7,-12%,.,-5,21,
